# Cruzain inh Det = qHTS Assay for Promiscuous and Specific Inhibitors of Cruzain (with detergent); purified cruzain, Z-FR-AMC fluorescence, 0.01% Triton; 0.43% of 200,000 active; Potency, µM, inactives show max response, negative = inhibition, usual class: inhibitors; AID 1478, 2009; Cruzipain (Trypanosoma cruzi), P25779;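 note: plate controls were neutral wells for no effect and buffer without enzyme for full effect; nearly all actives have a fitted effect of over 40% in size; top concentration of the series not given in the record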
# Target sequence (P25779 123-467 limits assumed): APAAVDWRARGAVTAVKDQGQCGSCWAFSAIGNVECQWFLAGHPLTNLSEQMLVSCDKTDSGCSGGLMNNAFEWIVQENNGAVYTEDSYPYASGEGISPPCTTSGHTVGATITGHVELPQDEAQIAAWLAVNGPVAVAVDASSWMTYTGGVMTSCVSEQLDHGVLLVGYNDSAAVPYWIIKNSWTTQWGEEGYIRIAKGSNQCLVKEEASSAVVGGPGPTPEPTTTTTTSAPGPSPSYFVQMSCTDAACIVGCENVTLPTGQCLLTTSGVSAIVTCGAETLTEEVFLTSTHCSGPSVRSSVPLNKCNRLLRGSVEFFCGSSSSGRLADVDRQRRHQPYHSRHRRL
#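 Purified cruzain (1.5 nM final) was preincubated with compounds for 15 min at room temperature in 100 mM sodium acetate pH 5.5, 5 mM DTT, 0.01% Triton X-100. Reaction started with 2 uM Z-FR-AMC; AMC fluorescence change over 60 s gave activity.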
# SARS PLpro yeast = qHTS of Yeast-based Assay for SARS-CoV PLP; S. cerevisiae expressing SARS-CoV PLpro, growth rescue; control for the full effect not named in the record; Potency, µM (doses to about 32.9 µM), inactives show at the highest dose activity, positive = growth rescue; 0.19% of 330,000 active; active means well fitted rising curve with a large enough effect; inconclusive means small, poorly fitted or top-dose-only effect; inactive means no such curve, though single readings can be large or run the other way; note: 0% is about no effect; nearly all actives have a fitted effect of over 55% in size; growth read by luminescence after 48 h
# Cruzain noTriton = qHTS Assay for Promiscuous and Specific Inhibitors of Cruzain (without detergent); Cruzipain (Trypanosoma cruzi), P25779; purified cruzain, Z-FR-AMC fluorescence, no detergent; Potency, µM, without a hit: max response, negative = inhibition, hits mostly inhibitors; 2.3% of 200,000 active; AID 1476, 2009;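 note: plate controls were enzyme without inhibitor for no effect and buffer without enzyme for full effect; nearly all actives have a fitted effect of over 40% in size; top concentration of the series not given in the record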
#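 Detergent-free condition (0.00005% Triton X-100) in acetate buffer pH 5.5 with DTT. 1.5 nM enzyme and compound were pre-mixed 15 min, then 2 uM Z-FR-AMC substrate added; reaction progress from fluorescence change between first and third reads (60 s).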
# NS1 inh = qHTS Assay for Inhibitors of Influenza NS1 Protein Function; Potency, µM (highest dose often 46.1 µM), for inactives: at the top dose activity, positive = more growth; 0.4% of 270,000 active; S. cerevisiae slowed by influenza A NS1, growth recovery by OD600; active means well fitted rising curve with a large enough effect; inconclusive means small, poorly fitted or top-dose-only effect; inactive means no such curve, though single readings can be large or run the other way; note: nearly all actives have a fitted effect of over 50% in size
#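 Compounds were scored for reversing the slow growth caused by influenza A NS1 in S. cerevisiae, measured by optical density at 600 nm. Assay medium contained 2% galactose at pH 6.0; NS1-free yeast of the same strain were the positive control.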
# LASV entry inh = qHTS for Inhibitors of binding or entry into cells for Lassa Virus. 1.2% of 300,000 active. Potency, µM (doses to about 37.9 µM), without a hit: at the top dose activity change, negative = inhibition, hits mostly inhibitors. Lassa virus pseudotype entry inhibition, cell reporter; control for the full effect not named in the record; active means well fitted inhibition curve with a large enough effect; inconclusive means small, poorly fitted or top-dose-only effect, or effect the other way; inactive means flat fitted curve, though single readings scatter; tested in HEK293 cells; note: % is set by controls: 0 for no effect and ±100 for the full control effect; nearly all actives have a fitted effect of over 50% in size; luciferase read-out
# MARV entry inh = qHTS for inhibitors of binding or entry into cells for Marburg Virus. Potency, µM (series often up to 37.8 µM), without a hit: top-dose activity change, negative = inhibition, usual class: inhibitors. 1.8% of 300,000 active. Marburg virus pseudotyped entry inhibition, cell reporter; control for the full effect not named in the record; about a third of the inactives were read at about 46 µM; active = well fitted inhibition curve with a large enough effect; inconclusive = small, poorly fitted or top-dose-only effect, or effect the other way; inactive = flat fitted curve, though single readings scatter; tested in HEK293 cells; about a fifth of its hits are not listed in these tables; note: % is set by controls: 0 for no effect and ±100 for the full control effect; luciferase read-out
# RE007 growth inh = qHTS Assay for Inhibitors of the HIV-1 protein Vpr. AID 651644, 2012. S. pombe RE007 Vpr strain, BacTiter-Glo ATP luminescence, 24 h; control for the full effect not named in the record. Potency, µM (doses to about 92.2 µM), inactives show at the top dose activity change, negative = less growth. 0.21% of 360,000 active; active = well fitted falling curve with a large enough effect; inconclusive = small, poorly fitted or top-dose-only effect; inactive = no such curve, though single readings can be large or run the other way;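 note: % is set by controls: 0 for no effect and ±100 for the full control effect; nearly all actives have a fitted effect of over 50% in size; the assay follows cell death caused by Vpr and the record does not say whether a fall means rescue or toxicity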
#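 Fission yeast strain RE007, carrying one chromosomally integrated HIV-1 vpr copy, was seeded at OD 0.01 in PMG+AL medium with 23 nL pinned compound. After 24 h at 30 °C and 99% humidity, viability was read by BacTiter-Glo luminescence.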
# 2A StopGo = High Throughput Screening for Foot and Mouth Disease Virus Antivirals; human cells with a luciferase reporter of 2A StopGo recoding; control for the full effect not named in the record; 1.2% of 410,000 active; AID 1159524, 2015; Potency, µM (highest dose often 57.9 µM), for inactives: top-dose signal change, negative = less light; active = well fitted falling curve with a large enough effect; inconclusive = small, poorly fitted or top-dose-only effect; inactive = no such curve, though single readings can be large or run the other way; tested in HEK293T cells; note: % is set by controls: 0 for no effect and ±100 for the full control effect; nearly all actives have a fitted effect of over 45% in size; luciferase light after 4 h
# The depositor's hits bear a star; u = inconclusive; x = no result given; [ ] = remark or other dose. Unless noted, calls come from the whole dose curve; as a rule, active = well fitted curve in the direction sought with a large enough effect; inconclusive = small, poorly fitted or top-dose-only effect, or another doubt; inactive = no such curve, though single readings can be large; an effect the other way counts as inactive or inconclusive. Potency is the fitted concentration of half-maximal effect.
SMILES,Cruzain inh Det,SARS PLpro yeast,Cruzain noTriton,NS1 inh,LASV entry inh,MARV entry inh,RE007 growth inh,2A StopGo
Cc1ccc(-c2nnc(SCC(=O)NC(C)(C)C)nc2-c2ccc(C)cc2)cc1,-11%,x,-22%,x,u,x,x,-26%
C[C@]12c3[nH]c4cc(-c5ccco5)ccc4c3CCN1C(=O)[C@@H](CC(=O)NCCN1CCOCC1)C[C@@H]2C(=O)N1CCOCC1,x,-3%,x,x,x,5%,-20%,-9%
COc1ccc(CN(C(=O)Cc2coc3ccc(C)cc23)C2CCS(=O)(=O)C2)cc1 (centres undefined),-6.2%,x,21%,x,-10%[46.1 µM],-1%[46.1 µM],x,-11%
COC(=O)c1ccccc1NC(=O)CSc1nnnn1-c1ccc(C)cc1C,-3.2%,18%,0%,-7%,u,-24%,10%,32µM*
CCN1C(=N)N(c2ccccc2)C(=O)C(CC)(CC)C1=O,x,x,x,x,-5%[46.1 µM],27%[46.1 µM],-8%,-4%
CNC[C@H](CC1CCCCC1)NC[C@H](NCCC1CCCC1)[C@H](C)O,x,0%,x,-5%,x,x,-14%,-22%
CCOc1nc2ccccc2nc1NS(=O)(=O)c1ccccc1,-2.2%,u,-9%,-51%,-4%,-3%,-11%,11%
O=C(NCCCc1ccccc1)c1cc(COc2c(F)cccc2F)on1,x,-30%,x,-18%,x,x,-6%,11%
CCN=C1NN=C(c2cc(C)n(Cc3ccco3)c2C)CS1,-6.2%,3%,u,-8%,u,u,-12%,0.079µM*
COc1cccc(OCc2cc(C(=O)N3CCCC3c3ccccn3)no2)c1 (centres undefined),x,-8%,x,-6%,8%,-6%,-1%,-8%
N#Cc1c(N)[nH]c(=S)c(C#N)c1-c1ccccc1,-3.7%,11%,-13%,20%,-2%,u,-1%,u
COc1ccccc1-c1c(C)oc2cc(OC(=O)c3ccco3)ccc2c1=O,-9.5%,-24%,-17%,-115%,27%,11%,2%,-14%
C=CCN(C(=O)CCC(=O)Nc1cc(C)on1)C(C(=O)NC(C)(C)CC)c1cccc(OC)c1OC (centres undefined),x,-2%,x,1%,-15%[46.1 µM],-21%[46.1 µM],9%,0%
CCOc1ccc(OCC)c(Nc2nc3ccc(C(=O)c4ccccc4)cc3n3cnnc23)c1,-0.5%,x,4%,x,1%[46.1 µM],x,x,2%
COc1ccc(C2(C(=O)Nc3ccc(OC)cc3OC)CCCC2)cc1,x,-1%,x,-5%,6%,16%[46.1 µM],25%,-13%
Cc1ccc(S(=O)(=O)N(C)CC(=O)Nc2cccnc2)cc1,x,-1%,x,11%,12%[46.1 µM],-8%[46.1 µM],-10%,-15%
Cc1ccc(S(=O)(=O)c2nc(S(=O)(=O)c3ccc(C)cc3)c(NCCCOC(C)C)s2)cc1,-2.6%,x,-13%,x,x,-5%[46.1 µM],x,7%
COc1cc(OC)c(S(=O)(=O)Nc2ccccc2N2CCCCC2)cc1NC(C)=O,x,3%,x,-3%,x,x,-8%,74%[activator]
Cc1cccn2c(=O)c3cc(C(=O)NC4CCCC4)c(=N)n(C4CCCCC4)c3nc12,x,1%,x,3%,3%,u,-11%,-13%
N#Cc1ccc(CSc2nnc(-c3cnccn3)o2)cc1,-5.0%,4%,-5%,-1%,-3%,3%,0%,1%
CCc1ccccc1NC(=O)c1ccc2c(O)c(S(=O)(=O)c3ccc(OC)cc3)c(=O)[nH]c2c1,x,2%,x,10%,x,x,14%,-8%
Cc1ccc(-n2c(=O)c3ccc(C(=O)NCc4ccco4)cc3n(Cc3ccccc3Cl)c2=O)cc1,-0.9%,x,0%,x,7%[46.1 µM],9%[46.1 µM],x,26%
CCCCNC(=O)CC1NCCNC1=O (centres undefined),x,0%,x,1%,3%,10%[14.2 µM],0%,-9%
CCOC(=O)C1=C(O)C(=O)N(c2ccc(S(N)(=O)=O)cc2)C1c1ccc(Br)cc1 (centres undefined),x,9%,x,2%,17%[46.1 µM],u,-2%,-6%
C=C(C(=O)c1ccccc1)C(C(=C)C(=O)c1ccccc1)c1ccc(OC)cc1,x,0%,x,-3%,x,x,-1%,28µM*
O=C(NCc1nc2ccccc2[nH]1)C1=C[C@H](C2CC2)C[C@H](OCc2ccc(CO)cc2)O1,x,0%,x,-2%,x,x,-25%,-21%
Cc1cccc(C(=O)Oc2ccccc2/C=N/NC(=O)c2ccc(NC(=O)C(C)(C)C)cc2)c1,-5.0%,11%,-6%,20µM*,-9%,u,-14%,-29%
CCOCCCN(C)C1CCN(C(=O)c2oc3ccccc3c2NC(=O)c2ccc(F)cc2)CC1,x,1%,x,11%,x,x,-14%,28%
Cc1nc2c(=O)n(-c3ccc(F)cc3F)nc(C)c2s1,x,0%,x,0%,x,x,-5%,-9%
COc1ccc(/C=C2/NC(=O)CNC2=O)cc1,x,2%,x,9%,x,x,1%,0%
CCCC/C(C)=N/NC(=O)CN(c1ccc(Br)cc1)S(=O)(=O)c1ccccc1,-3.9%,7%,-14%,u,2%,6%,3%,-11%
CC1(C)C[C@@H]2C[C@@](C)(CN2C(=O)c2cc(COc3cccc(C(F)(F)F)c3)on2)C1,x,10%,x,-20%,-30%,u,9%,-13%
Cc1cc(-c2ccc(S(=O)(=O)N3CCc4ccccc4C3)s2)on1,x,2%,x,13%,x,x,-4%,-17%
COc1ccc2[nH]c(C)c(C(=O)CN3CCc4cc(OC)c(OC)cc4C3)c2c1,-1.4%,3%,1%,23%,12%,0%,11%,-23%
CN1CCN(C(=S)NC(=O)c2ccccc2Br)CC1,x,0%,x,2%,x,x,-1%,-18%
CCOC(=O)c1c(C)n(-c2ccc(OC)cc2)c2c(C/C(C)=N/O)c(Br)c(OC)c(O)c12,4.3%,10%,-25%,5%,6%,1%,4%,-25%
Cc1cc(NC(=O)C(C)SCC(=O)OCC(=O)Nc2c(C)cccc2C(C)C)no1 (centres undefined),x,1%,x,x,7%,21%,25%,-18%
O=C(N/N=C/c1ccccc1O)c1cc(=O)[nH]c2ccccc12,-6.0%,24%,2%,2%,7%,-21%,x,x
COC(=O)c1sccc1NC(=S)Nc1ccccc1,-1.3%,-4%,6%,13%,2%,5%,20%,15%
Cc1ccc(Sc2nc(-c3ccccc3)nnc2C(F)(F)F)cc1,-5.1%,1%,-7%,0%,-15%,u,-15%,-24%
O=C(c1cccc(N2C(=O)C3C4C=CC(C4)C3C2=O)c1)N1CCCc2ccccc21 (centres undefined),x,-3%,x,x,-1%,-1%,-4%,-3%
CCOc1cc(/C=C2\C(=O)NC(=O)N(C)C2=O)cc([N+](=O)[O-])c1O,x,-3%,x,u,9%,-2%[46.1 µM],5%,7%
CSc1nc(-c2ccccc2)nc(N2CCCC2)c1C(C)=O,1.5%,x,-11%,-91%,15%,0%,-1%,-4%
COc1ccc(Cc2nnc(NC(=O)c3ccc(OC)c(OC)c3)s2)cc1,x,2%,x,u,u,u,2%,-21%
Cc1ccc(Cn2c(N)nc3ccccc32)cc1,x,-5%,x,-7%,-16%[46.1 µM],u,6%,-30%
Cc1c(-n2c(CN3C(=O)c4ccccc4C3=O)nc3ccccc3c2=O)c(=O)n(-c2ccccc2)n1C,x,x,x,-1%,0%,7%[46.1 µM],-18%,-14%
N#Cc1ccc(Oc2c(Cl)cncc2Cl)cc1,x,-2%,x,-3%,-4%[46.1 µM],-6%[46.1 µM],4%,-26%
c1ccc(-n2ncc3c(NCc4cccs4)ncnc32)cc1,4.6%,-13%,1%,-9%,u,u,-2%,27%
Cc1ccc(S(=O)(=O)Nc2c(NC3CCCCC3)c3ccccc3oc2=O)cc1,x,2%,x,1%,x,x,8%,5%
O=C(Nc1ccccc1Cl)Nn1cnnc1,x,-2%,x,-10%,x,x,-4%,-10%
Cc1ccc(NC(=O)CSCC(=O)N2CCN(c3cccc(C(F)(F)F)c3)CC2)cc1,x,-26%,x,x,-4%,27%,-12%,-13%
CCOc1cc(C2C(C(=O)OC)=C(C)N=C3SC(C)C(=O)N32)ccc1OC(C)=O (centres undefined),-0.5%,2%,u,u,-5%,-10%,0%,-5%
O=C(C1CC(=O)N(c2ccccc2)C1)N1CCN(C2=NS(=O)(=O)c3ccccc32)CC1 (centres undefined),6.1%,6%,-9%,3%,28%[14.3 µM],10%,8%,3%
O=C(Cc1ccccc1)NNC(=O)c1ccccc1C(=O)O,x,5%,x,3%,u,13%[46.1 µM],-4%,9%
CCn1c2ccccc2c2cc(NC(=O)COC(=O)c3ccc(O)cc3)ccc21,x,-5%,x,x,u,u,4%,-14%

# Full records as entered above. Values in the order: Cruzain inh Det	SARS PLpro yeast	Cruzain noTriton	NS1 inh	LASV entry inh	MARV entry inh	RE007 growth inh	2A StopGo
# Cc1ccc(NC(=O)CSCC(=O)N2CCN(c3cccc(C(F)(F)F)c3)CC2)cc1 across the screens: x	-26%	x	x	-4%	27%	-12%	-13%
# CCn1c2ccccc2c2cc(NC(=O)COC(=O)c3ccc(O)cc3)ccc21 across the screens: x	-5%	x	x	u	u	4%	-14%

# Part of the list above, set out differently.
> CCn1c2ccccc2c2cc(NC(=O)COC(=O)c3ccc(O)cc3)ccc21
  Cruzain inh Det: x
  SARS PLpro yeast: -5%
  Cruzain noTriton: x
  NS1 inh: x
  LASV entry inh: u
  MARV entry inh: u
  RE007 growth inh: 4%
  2A StopGo: -14%

> O=C(C1CC(=O)N(c2ccccc2)C1)N1CCN(C2=NS(=O)(=O)c3ccccc32)CC1 (centres undefined)
  Cruzain inh Det: 6.1%
  SARS PLpro yeast: 6%
  Cruzain noTriton: -9%
  NS1 inh: 3%
  LASV entry inh: 28%[14.3 µM]
  MARV entry inh: 10%
  RE007 growth inh: 8%
  2A StopGo: 3%

> CCOc1cc(C2C(C(=O)OC)=C(C)N=C3SC(C)C(=O)N32)ccc1OC(C)=O (centres undefined)
  Cruzain inh Det: -0.5%
  SARS PLpro yeast: 2%
  Cruzain noTriton: u
  NS1 inh: u
  LASV entry inh: -5%
  MARV entry inh: -10%
  RE007 growth inh: 0%
  2A StopGo: -5%

# Source: PubChem
